Screening results deposited in PubChem BioAssay by National Center for Advancing Translational Sciences (NCATS).
Cruzain inh noDet = blocks cruzain activity in detergent-free assay | P25779 | purified cruzain, Z-FR-AMC fluorescence, no detergent | Potency, µM, for inactives: max response, negative = inhibition, most hits filed as inhibitors | hit rate 2.3% among 200,000 | AID 1476; active = well fitted curve in the direction sought with a large enough effect; inconclusive = small, poorly fitted or top-dose-only effect, or another doubt; inactive = no such curve, though single readings can be large; an effect the other way counts as inactive or inconclusive;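 also: plate controls were enzyme without inhibitor for no effect and buffer without enzyme for full effect; nearly all actives have a fitted effect of over 40% in size; top concentration of the series not given in the record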
Target sequence (P25779 123-467 limits assumed): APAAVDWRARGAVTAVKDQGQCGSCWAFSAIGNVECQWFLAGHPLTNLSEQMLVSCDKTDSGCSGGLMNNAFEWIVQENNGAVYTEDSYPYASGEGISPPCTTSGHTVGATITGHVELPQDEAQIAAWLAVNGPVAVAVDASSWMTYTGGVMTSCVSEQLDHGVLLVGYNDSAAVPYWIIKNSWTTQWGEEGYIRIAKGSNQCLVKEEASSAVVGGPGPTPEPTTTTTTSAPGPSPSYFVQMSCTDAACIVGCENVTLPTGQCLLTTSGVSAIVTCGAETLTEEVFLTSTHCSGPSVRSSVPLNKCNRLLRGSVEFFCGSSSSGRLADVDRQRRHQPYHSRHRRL
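Purified cruzain at 1.5 nM, pre-incubated 15 min with compound at room temperature in 100 mM sodium acetate pH 5.5, 5 mM DTT, 0.00005% Triton X-100. Reaction started with 2 uM Z-FR-AMC; AMC fluorescence increase over 60 s gives rate.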
Lassa entry inh = blocks Lassa virus binding to or entry into cells; Lassa virus pseudotype entry inhibition, cell reporter; control for the full effect not named in the record; Potency, µM (doses to about 37.9 µM), for the others: top-dose activity change, negative = inhibition, actives largely listed as inhibitors; hit rate 1.2% among 300,000; AID 540256; active means well fitted inhibition curve with a large enough effect; inconclusive means small, poorly fitted or top-dose-only effect, or effect the other way; inactive means flat fitted curve, though single readings scatter; tested in HEK293 cells; also: % is scaled to controls: 0 for no effect and ±100 for the full control effect; nearly all actives have a fitted effect of over 50% in size; luciferase read-out
StopGo reporter = FMDV 2A StopGo reporter, luciferase signal. human cells with a luciferase reporter of 2A StopGo recoding; control for the full effect not named in the record. Potency, µM (top dose mostly 57.9 µM), without a hit: at the top dose signal change, negative = less light. hit rate 1.2% among 410,000; active = well fitted falling curve with a large enough effect; inconclusive = small, poorly fitted or top-dose-only effect; inactive = no such curve, though single readings can be large or run the other way; tested in HEK293T cells; also: % is scaled to controls: 0 for no effect and ±100 for the full control effect; nearly all actives have a fitted effect of over 45% in size; luciferase light after 4 h
SARS PLP yeast = SARS-CoV PLP inhibition in yeast. hit rate 0.19% among 330,000. Potency, µM (doses to about 32.9 µM), for inactives: top-dose activity, positive = growth rescue. S. cerevisiae expressing SARS-CoV PLpro, growth rescue; control for the full effect not named in the record. AID 485353; also: 0% is about no effect; nearly all actives have a fitted effect of over 55% in size; growth read by luminescence after 48 h
NS1 inh = inhibitors of influenza NS1 protein function. hit rate 0.4% among 270,000. Potency, µM (top dose mostly 46.1 µM), without a hit: top-dose activity, positive = more growth. S. cerevisiae slowed by influenza A NS1, growth recovery by OD600; also: actives are rising curves; nearly all actives have a fitted effect of over 50% in size
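In this qHTS, NS1 from influenza A is expressed in budding yeast, where it slows growth. Cells are switched from glucose to 2% galactose medium (pH 6.0, -URA), treated with compound, and growth recovery is read at OD600.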
Cruzain Triton = cruzain (T. cruzi) inhibition with detergent. P25779. purified cruzain, Z-FR-AMC fluorescence, 0.01% Triton. Potency, µM, for the others: max response, negative = inhibition, actives largely listed as inhibitors. hit rate 0.43% among 200,000; active = well fitted curve in the direction sought with a large enough effect; inconclusive = small, poorly fitted or top-dose-only effect, or another doubt; inactive = no such curve, though single readings can be large; an effect the other way counts as inactive or inconclusive;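 also: plate controls were neutral wells for no effect and buffer without enzyme for full effect; nearly all actives have a fitted effect of over 40% in size; top concentration of the series not given in the record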
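Detergent-containing run (0.01% Triton X-100) in acetate buffer pH 5.5 with 5 mM DTT: enzyme at 1.5 nM final, 15 min compound preincubation at room temperature, then 2 uM Z-FR-AMC substrate. Activity taken as 60 s fluorescence increase at 360/450 nm.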
MARV entry inh = inhibitors of Marburg virus binding or cell entry; AID 540276; Marburg virus pseudotyped entry inhibition, cell reporter; control for the full effect not named in the record; about a third of the inactives were read at about 46 µM; Potency, µM (series often up to 37.8 µM), for the others: top-dose activity change, negative = inhibition, hits mostly inhibitors; hit rate 1.8% among 300,000; active = well fitted inhibition curve with a large enough effect; inconclusive = small, poorly fitted or top-dose-only effect, or effect the other way; inactive = flat fitted curve, though single readings scatter; tested in HEK293 cells; about a fifth of its hits are not listed in these tables; also: % is scaled to controls: 0 for no effect and ±100 for the full control effect; luciferase read-out
RE007 growth inh = less growth of the S. pombe RE007 Vpr strain; hit rate 0.21% among 360,000; S. pombe RE007 Vpr strain, BacTiter-Glo ATP luminescence, 24 h; control for the full effect not named in the record; Potency, µM (series often up to 92.2 µM), for inactives: at the highest dose activity change, negative = less growth; active = well fitted falling curve with a large enough effect; inconclusive = small, poorly fitted or top-dose-only effect; inactive = no such curve, though single readings can be large or run the other way;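 also: % is scaled to controls: 0 for no effect and ±100 for the full control effect; nearly all actives have a fitted effect of over 50% in size; the assay follows cell death caused by Vpr and the record does not say whether a fall means rescue or toxicity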
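Fission yeast strain RE007, carrying one chromosomally integrated HIV-1 vpr copy, was seeded at OD 0.01 in PMG+AL medium with 23 nL pinned compound. After 24 h at 30 °C and 99% humidity, viability was read by BacTiter-Glo luminescence.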
An asterisk follows results filed as active; ? = inconclusive; . = not tested or not shown; [ ] = dose if it differs, or a comment. Unless noted, calls follow the shape of the dose curve; as a rule, active means well fitted rising curve with a large enough effect; inconclusive means small, poorly fitted or top-dose-only effect; inactive means no such curve, though single readings can be large or run the other way. Potency is read from the fitted curve at half-maximal effect.

SMILES | Cruzain inh noDet | Lassa entry inh | StopGo reporter | SARS PLP yeast | NS1 inh | Cruzain Triton | MARV entry inh | RE007 growth inh
O=C(Nc1ccc(S(=O)(=O)NC2=NCCCCC2)cc1)c1ccc(=O)[nH]c1 | . | . | -1.8% | -10.7% | 3.5% | . | . | -3.0%
O=[N+]([O-])c1ccc(N2CCN(CC3CCCCC3)CC2)cc1 | . | . | -19.5% | -4.3% | -5.1% | . | . | ?
CC(C)(C)NC(=S)NNC(=O)c1ccccc1Cl | 5.1% | 11.7% | 24.9% | 17.2% | -5.7% | 3.8% | 36.6% | -19.1%
O=c1cc(O)n(-c2ccccc2)c(=S)[nH]1 | -15.2% | 5.0% | -14.2% | -4.5% | 17.2% | 1.8% | 11.4% | 7.9%
O=C(Cn1nnc(-c2ccccc2F)n1)Nc1ccc(S(=O)(=O)NC2CCCC2)cc1 | -19.8% | -0.5% | . | -3.0% | -2.4% | -6.1% | -4.8% | -4.8%
Cc1ccc(Sc2c(C)nn(-c3ccccc3)c2OC(=O)C(C)(C)C)cc1 | 1.5% | 21.3%[46.1 µM] | 0.0% | . | . | -3.8% | -27.8%[46.1 µM] | .
CC(C)CN(C(=O)COC(=O)c1ccc([N+](=O)[O-])o1)C1CCS(=O)(=O)C1 (stereo not given) | 3.1% | 1.7% | -11.3% | 11.7% | 2.4% | -2.5% | 10.4% | .
Cc1ccc2sc(NC(=O)c3ccc(N4C(=O)CCC4=O)cc3)nc2c1C | ? | 1.1% | ? | -3.6% | 27.2% | 1.7% | -20.6% | 5.2%
Cc1cccc2cc(C3CC(c4cccs4)=NN3S(C)(=O)=O)c(Cl)nc12 (stereo not given) | . | . | 7.1% | 0.6% | 15.9% | . | . | -3.0%
CCn1c(=O)c2sccc2n(CC(=O)NC2CCCC2)c1=O | . | . | -4.9% | 6.3% | 5.6% | . | 2.3%[46.1 µM] | 4.3%
CN1C(=O)Cc2cc(S(=O)(=O)Nc3ccc(N4CCOCC4)cc3)ccc21 | . | 7.3%[46.1 µM] | 18.2% | 2.8% | 8.4% | . | 6.0%[46.1 µM] | 9.7%
Cc1ccccc1CSCC(=O)NCc1ccco1 | -10.3% | ? | 14.4% | 5.3% | -5.8% | -16.9% | ? | -6.3%
Cc1cccc(NC(=O)Nc2nnc(N(C)Cc3ccccc3)s2)c1 | 4.9% | 3.4%[46.1 µM] | -13.9% | . | . | -7.6% | 19.0%[46.1 µM] | .
CC(C)C[C@@H](CO)N1CCN(Cc2ccc(O)cc2)CCC1=O | . | . | -5.9% | 5.5% | -5.3% | . | . | 0.5%
CCN1CCCC1CNC(=O)c1[nH]c2ccc(OC)cc2c1C (stereo not given) | . | . | -17.0% | 1.2% | 1.8% | . | . | 0.7%
CN(C)C(=O)CS(=O)(=O)c1ccc(Cl)cc1 | . | 16.9% | -6.5% | -0.4% | 4.5% | . | 10.2% | 1.3%
COc1ccc(C(=O)CC(=O)C(=O)Nc2cc([N+](=O)[O-])ccc2OC)cc1 | . | . | -23.8% | 1.1% | 8.6% | . | . | 2.8%
O=C(COc1ccccc1[N+](=O)[O-])NCC1(N2CCOCC2)CCCCC1 | . | ? | ? | 0.3% | . | . | ? | -6.5%
CCOc1ccccc1NC(=O)c1cc(S(=O)(=O)N2CCOCC2)cn1C | 4.8% | 4.7%[46.1 µM] | ? | . | . | -6.7% | . | .
CC12c3ccccc3C(c3ccccc31)C1C(=O)N(c3cccnc3)C(=O)C12 (stereo not given) | 4.5% | -12.7% | -16.9% | -14.3% | 13.1% | -0.3% | 0.0% | 1.8%
O=[N+]([O-])c1ccc(N2CCNCC2)cc1Sc1ccccn1 | -7.0% | ? | -1.8% | 13.7% | -5.0% | -4.1% | ? | 5.8%
COc1ccc(-c2nc(CNS(=O)(=O)c3cc(OC)ccc3OC)cs2)cc1 | -5.1% | . | 2.1% | -23.2% | -44.8% | -1.2% | . | -12.0%
Cc1sc2ncnc(N3CCC(C(=O)Nc4nc(-c5ccc(F)cc5)cs4)CC3)c2c1C | . | ? | 0.0% | 6.0% | . | . | ? | -10.1%
CCCN(CC(=O)Nc1ccccc1C)C(=O)CCN1C(=O)c2cccc([N+](=O)[O-])c2C1=O | . | 13.8% | -8.9% | 3.2% | . | . | 0.8% | -15.5%
CN(C)c1ccc(Sc2nnc(NC(=O)Nc3ccc(Cl)cc3Cl)s2)cc1 | 10µM* | ? | -3.2% | 3.7% | 4.9% | -4.3% | -2.8% | 12.2%
Further records follow:
SMILES | Cruzain inh noDet | Lassa entry inh | StopGo reporter | SARS PLP yeast | NS1 inh | Cruzain Triton | MARV entry inh | RE007 growth inh
CC(C(=O)Nc1ccc(F)c(F)c1F)N1CCCCCC1 (stereo not given) | 9.8% | -6.6% | -16.3% | -2.2% | -0.4% | 5.9% | -10.6% | -9.5%
O=C(N/N=C(\Cc1ncc[nH]1)c1ccccc1)c1ccncc1 | . | ? | -22.0% | 0.1% | . | . | ? | 1.8%
Cc1ccc(SCC(=O)O/N=C(\N)c2cccnc2)cc1 | . | 12.9% | 18.8% | -6.6% | -20.2% | . | -2.6% | 2.8%
COc1ccccc1NS(=O)(=O)c1cccc(C(=O)N/N=C(\C)c2ccc3c(c2)OCCO3)c1 | 9.1% | -0.1% | ? | 4.4% | -0.3% | -7.3% | 5.1% | 6.3%
Cc1ccc(C)c(OCCCCN2CCCCC2)c1 | . | . | -15.8% | -12.8% | 3.1% | . | . | -11.8%
Cc1ccc(C)c(S(=O)(=O)Nc2nc3ccc(S(N)(=O)=O)cc3s2)c1 | . | 5.6% | 0.9% | -0.9% | . | . | ? | 2.0%
COc1ccc(CCC(=O)N2CCc3ccccc32)cc1 | 4.9% | -0.4% | 62.4%[activator] | 8.1% | -56.1% | 5.7% | 4.4% | 43.9%
COc1ccc([N+](=O)[O-])cc1N(CC(=O)N1CCCC1)S(C)(=O)=O | . | 17.9%[46.1 µM] | -10.3% | 0.8% | 1.7% | . | 1.7%[46.1 µM] | 4.4%
O=C(CN1C(=O)C(=O)N(C2CCCC2)C1=O)Nc1ccc(N2CCOCC2)cc1 | . | ? | -1.9% | 2.5% | . | . | 12.3%[46.1 µM] | 16.2%
COc1ccc(S(=O)(=O)Nc2ccc(S(=O)(=O)Nc3ccc(F)cc3)cc2)cc1C | ? | -11.0% | 37.5%[activator] | 4.7% | 24.7% | -10.5% | -19.9% | 0.6%
COc1ccccc1NC(=O)CSC1=NCCN1 | -2.1% | -14.0% | 0.0% | 6.6% | 3.0% | 0.6% | ? | .
CCN(CC)c1ncnc2sc3c(c12)CCC3 | -22.9% | 6.1% | ? | -9.3% | -29.7% | -3.4% | 0.2%[46.1 µM] | -10.3%
Nc1cccn2c(-c3ccc(Cl)c(Cl)c3)cnc12 | . | ? | -0.4% | -4.2% | . | . | -16.7%[46.1 µM] | ?
O=C(Oc1coc(CSc2nnc(NC(=O)C3CC3)s2)cc1=O)c1c(F)cccc1F | . | -2.2%[46.1 µM] | 8.7% | -1.5% | . | . | -2.6%[46.1 µM] | 10.5%
CC(C)(C)C(=O)/C(=C/c1ccncc1)n1cncn1 | . | 10.3µM* | 11.2µM* | 5.1% | -6.7% | . | 4.11µM* | -10.1%
COc1ccc(/C=C/C(=O)N2c3ccccc3Sc3ccc(C(F)(F)F)cc32)cc1 | ? | 7.8% | ? | 6.1% | 4.3% | -0.9% | -0.2% | 11.6%
CC(NC(=O)CSc1nc2c(c(C(F)(F)F)n1)CCc1ccccc1-2)c1ccccc1 (stereo not given) | -7.2% | ? | ? | 3.1% | 3.8% | -8.1% | ? | -10.0%
O=C(Cc1cccs1)Nc1ccc(S(=O)(=O)Nc2ncccn2)cc1 | -7.2% | 7.1% | 0.0% | -1.5% | 5.0% | 0.1% | 7.2% | 24.0%
O=C(CN1CCN(CC(=O)c2ccc(Cl)cc2)CC1)c1ccc(Cl)cc1 | . | 19.9% | 10.5% | . | . | . | -1.0% | -7.9%
COc1ccc(Cl)cc1C(=O)N/N=C/c1ccc(N2CCOCC2)cc1 | . | 18.3% | -13.7% | -1.1% | -2.2% | . | -17.3%[46.1 µM] | -4.3%
O=C(Cc1ccc(-n2c(=O)[nH]c3ccsc3c2=O)cc1)N1CCN(c2ccc(Cl)cc2)CC1 | 13.1% | -12.6% | -28.3% | -16.7% | 14.3% | -4.7% | -18.7% | -15.1%
O=C(Nc1nccs1)C(NS(=O)(=O)c1ccc(Br)s1)c1ccccc1 (stereo not given) | -28.7% | 2.7% | -26.3% | ? | 5.5% | 0.2% | 10.3% | -2.4%
COc1cc2cc(CN(Cc3cccnc3)C(=O)Nc3ccccc3F)c(=O)[nH]c2cc1OC | . | . | -12.5% | 1.3% | 2.1% | . | . | 0.5%
COc1ccc(C(CC(=O)O)NC(=O)C(c2ccccc2)c2ccccc2)cc1 (stereo not given) | . | 2.0% | -1.8% | 0.3% | -1.9% | . | 8.8% | 6.2%
Cc1cc(NS(=O)(=O)c2ccc(NC(=S)NC(=O)c3ccc(C(C)(C)C)cc3)cc2)no1 | -9.9% | 6.2% | 0.5% | 14.9% | 10.3% | ? | ? | .
Nc1ccc(Sc2ccc(N)cc2)cc1 | -5.2% | -0.2% | 9.0% | . | . | 2.6% | ? | 0.0%
CCOC(=O)c1cnc2ccc(Br)cc2c1NCCCN1CCOCC1 | . | . | -11.4% | -4.1% | -5.1% | . | . | -6.5%
C=CCn1c(Cc2cccs2)nnc1SCC(=O)Nc1ccc(OC)cc1 | 11.3% | ? | 10.4% | -5.2% | -15.6% | 0.7% | -16.9% | 19.8%
CCOCC(=O)Nc1ccc(OCc2ccccc2)cc1 | . | 12.6%[46.1 µM] | 31.4%[activator] | -2.8% | -9.3% | . | 14.0%[46.1 µM] | 4.5%
CC(C)OC(=O)CNc1n[nH]c(=S)[nH]c1=O | . | 5.4% | -9.7% | -1.8% | -2.3% | . | 19.4%[46.1 µM] | -14.0%

Hits appear at their usual frequency; overall some 4.8% were active at least once.
